MT1-MMP reporter: inhibitors of MT1-MMP promoter transcription, cell-based, luciferase reporter, luminescence (AID 618) | 87,000 tested, 0.62% active | MT1-MMP promoter luciferase reporter cells, luminescence | calls from a first round at 10 µM; hits with a dose series show EC50 in µM;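 active = over half of the reporter light lost at 10 µM or EC50 under 50 µM; inactive = the rest and hits that failed the dose series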;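 note: actives suppress MT1-MMP promoter-driven transcription so potencies describe inhibitors; HT1080 fibrosarcoma cells; overnight exposure; toxic or luciferase-blocking compounds were not removed from the actives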
Hsc70: Hsc70 inhibitors, probe displacement, primary screen, biochemical, fluorescence polarization (AID 568); Heat shock cognate 71 kDa protein (Homo sapiens); one-dose displacement, % at 20 µM; IC50 in µM for titrated hits; 83,000 tested, under 10 active; Hsc70 fluorescence polarization, probe displacement; higher % means a stronger effect; strong numbers were not always called active;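 active = displacement above 50% without optical interference and an IC50 on retest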;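 note: ATPase domain with a fluorescein-tagged ATP probe; 0% = vehicle and 100% = excess ADP; read after one hour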
WNV protease inh: inhibitors of WNV NS2B-NS3 protease, primary screen, biochemical, fluorogenic substrate; Genome polyprotein (West Nile virus), P06935; z-score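 (tested at a level between 10 and 100 µM)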; 65,000 tested, 0.18% active; AID 577, 2007; fluorogenic substrate Ex360/Em465; active compounds read low;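 active = z-score at -3 or under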;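 note: score is relative to mean and spread of the compound wells of a plate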
Target sequence (P06935 1371-1501 limits assumed): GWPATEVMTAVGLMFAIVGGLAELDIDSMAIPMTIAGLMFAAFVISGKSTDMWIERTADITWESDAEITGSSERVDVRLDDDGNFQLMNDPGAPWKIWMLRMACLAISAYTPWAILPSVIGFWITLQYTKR
Target sequence (P06935 1502-1679 limits assumed): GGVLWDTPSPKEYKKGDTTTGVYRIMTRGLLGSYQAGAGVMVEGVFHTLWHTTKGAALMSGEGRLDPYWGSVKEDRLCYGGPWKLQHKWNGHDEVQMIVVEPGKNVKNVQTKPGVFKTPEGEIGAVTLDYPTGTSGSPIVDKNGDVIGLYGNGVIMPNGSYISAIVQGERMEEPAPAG
Active calls of the source: *; & = joins results of further samples. These rows are one share of the data; rates above refer to the full screens.

What do the screens show for `CN1CCCN=C1COC(=O)C(O)(c1ccccc1)C1CCCCC1` (stereo not given)?
MT1-MMP reporter: inactive; Hsc70: -3.8%; WNV protease inh: -0.02

What do the screens show for `CC1Cc2ccccc2N1NC(=O)c1ccc(Cl)c(S(N)(=O)=O)c1` (stereo not given)?
MT1-MMP reporter: inactive; Hsc70: 7.8%; WNV protease inh: 0.23

How did CCC(NC(C)C)C(O)c1ccc(O)c2[nH]c(=O)ccc12 (stereo not given) do in these assays?
MT1-MMP reporter: inactive; Hsc70: -0.9%; WNV protease inh: 0.49

Results for COc1ccc(C2CNC(=O)C2)cc1OC1CCCC1 (stereo not given) ?
MT1-MMP reporter: inactive; Hsc70: -2.8%; WNV protease inh: 0.6

What do the screens show for `CCCCCC(=O)O[C@]1(C(C)=O)CC[C@H]2[C@@H]3CCC4=CC(=O)CC[C@]4(C)[C@H]3CC[C@@]21C`?
MT1-MMP reporter: inactive; Hsc70: 0.1%; WNV protease inh: 0.15

Results for CCn1cc(C(=O)O)c(=O)c2cnc(N3CCNCC3)nc21 ?
MT1-MMP reporter: inactive; Hsc70: -2.8%; WNV protease inh: -0.19

What do the screens show for `CC(=O)CCCCn1c(=O)c2c(ncn2C)n(C)c1=O`?
MT1-MMP reporter: inactive; Hsc70: 3.0%; WNV protease inh: 2.3

Results for O=C(O)c1cccnc1Nc1cccc(C(F)(F)F)c1 ?
MT1-MMP reporter: inactive; Hsc70: 3.9%; WNV protease inh: 0.2

How did C1COC(NC(C2CC2)C2CC2)=N1 do in these assays?
MT1-MMP reporter: inactive; Hsc70: -2.8%; WNV protease inh: -0.42

How did Cc1ccc(N(CC2=NCCN2)c2cccc(O)c2)cc1 do in these assays?
MT1-MMP reporter: inactive; Hsc70: -2.0%&-0.4%; WNV protease inh: 0.86&0.16&-0.44

Results for CN(C)CCCC1(c2ccc(F)cc2)OCc2cc(C#N)ccc21 (stereo not given) ?
MT1-MMP reporter: inactive; Hsc70: -3.8%; WNV protease inh: 0.22

Ordered by length of the SMILES (highest first): some entries from above
Results for CCn1cc(C(=O)O)c(=O)c2cnc(N3CCNCC3)nc21 ?
MT1-MMP reporter: inactive; Hsc70: -2.8%; WNV protease inh: -0.19

What do the screens show for `CC(=O)CCCCn1c(=O)c2c(ncn2C)n(C)c1=O`?
MT1-MMP reporter: inactive; Hsc70: 3.0%; WNV protease inh: 2.3

Results for O=C(O)c1cccnc1Nc1cccc(C(F)(F)F)c1 ?
MT1-MMP reporter: inactive; Hsc70: 3.9%; WNV protease inh: 0.2

Results for COc1ccc(C2CNC(=O)C2)cc1OC1CCCC1 (stereo not given) ?
MT1-MMP reporter: inactive; Hsc70: -2.8%; WNV protease inh: 0.6

How did C1COC(NC(C2CC2)C2CC2)=N1 do in these assays?
MT1-MMP reporter: inactive; Hsc70: -2.8%; WNV protease inh: -0.42
